Bioassay records from PubChem.
Calb FLC: C. albicans growth modulation with fluconazole | C. albicans CaCi-2 (fluconazole-resistant clinical isolate) + fluconazole, Alamar Blue growth, 48 h | growth inhibition, % (no concentration beside the values) | 0.57% of 300,000 active;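 active = most replicates above 75%; inconclusive = exactly half above 75%; inactive = most below 75%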;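 also: all wells also contain fluconazole at 8 µg/ml as a sub-toxic cotreatment; 0% = median of DMSO wells and 100% = median of geldanamycin control wells; wells of about 8 µL received 7.5 nL stock; the first replicate is given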
ALR inh: inhibitors of human sulfhydryl oxidase ALR. inhibition, % (test concentration not listed). purified ALR, DTT oxidation, H2O2 HRP-luminol luminescence. P55789. 3.8% of 290,000 active;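 active = mean and each replicate at 75% or more; inconclusive = only one of the two met; inactive = neither met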;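 also: stock transfer was 7.5 nL into about 7.5 µL; 0% = neutral wells and 100% = wells with inactivated enzyme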
Target sequence (P55789 whole entry, looked up): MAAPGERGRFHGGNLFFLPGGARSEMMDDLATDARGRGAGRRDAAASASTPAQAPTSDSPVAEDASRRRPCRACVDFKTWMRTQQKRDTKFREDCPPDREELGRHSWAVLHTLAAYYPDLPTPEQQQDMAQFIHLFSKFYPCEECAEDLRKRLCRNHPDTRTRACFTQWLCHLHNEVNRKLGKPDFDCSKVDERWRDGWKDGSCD
Beta2AR agonist: human beta-2 adrenergic receptor agonism by FAP; 0.43% of 340,000 active; Am2.2-beta2AR cells, FAP receptor internalization, flow cytometry; reference of the scale not given here; response, % (test concentration not listed); P07550;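 active = response above a set limit, near 3 SD of response in nonfluorescent compounds, cut at about 42% in these data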;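 also: stock transfer was 100 nL into about 11 µL; a reference agonist was the positive control; negative values mostly stem from fluorescent compounds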
Target sequence (P07550 whole entry, looked up): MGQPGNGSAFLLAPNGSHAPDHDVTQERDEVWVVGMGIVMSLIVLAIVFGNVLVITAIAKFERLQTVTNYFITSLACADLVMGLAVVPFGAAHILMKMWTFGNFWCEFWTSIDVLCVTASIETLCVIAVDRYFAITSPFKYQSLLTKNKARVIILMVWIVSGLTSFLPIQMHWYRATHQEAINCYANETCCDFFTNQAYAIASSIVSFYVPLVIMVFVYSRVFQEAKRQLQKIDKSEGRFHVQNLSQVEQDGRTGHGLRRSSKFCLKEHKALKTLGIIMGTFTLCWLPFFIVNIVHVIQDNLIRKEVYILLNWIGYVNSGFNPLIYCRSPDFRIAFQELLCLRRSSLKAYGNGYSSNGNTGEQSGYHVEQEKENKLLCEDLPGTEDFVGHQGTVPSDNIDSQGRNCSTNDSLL
HNF4A DNA FP: change in binding of human HNF4 alpha to DNA; P41235; HNF4a-FITC DNA binding, fluorescence polarization, 1 h; activity change, % at 10 µM; 0.3% of 360,000 active; AID 1224865; in the data active = activity change above about 30%, passing the limit was not always enough;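 also: controls were the assay level and a saturating level of protein; the project sought stronger binding though the title names inhibitors; some compounds called inactive have numbers as strong as hits; positive values seem to mean higher polarization but the record does not say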
Target sequence (P41235 whole entry, looked up): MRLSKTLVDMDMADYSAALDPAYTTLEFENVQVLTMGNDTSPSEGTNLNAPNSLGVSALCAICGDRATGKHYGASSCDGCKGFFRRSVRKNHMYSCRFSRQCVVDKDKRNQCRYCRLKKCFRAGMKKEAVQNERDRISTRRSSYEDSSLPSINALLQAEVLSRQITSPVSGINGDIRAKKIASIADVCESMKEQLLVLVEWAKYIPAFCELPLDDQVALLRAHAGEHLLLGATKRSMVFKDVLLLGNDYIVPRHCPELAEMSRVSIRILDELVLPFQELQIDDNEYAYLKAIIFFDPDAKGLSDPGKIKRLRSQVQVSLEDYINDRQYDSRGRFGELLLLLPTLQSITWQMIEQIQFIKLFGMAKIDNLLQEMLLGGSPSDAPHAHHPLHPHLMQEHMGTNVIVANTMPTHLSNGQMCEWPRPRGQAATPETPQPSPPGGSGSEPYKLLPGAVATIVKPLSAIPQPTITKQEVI
RanGTP-Impb inh: disruptors of Ran-importin-beta complex formation – biochemical, FRET, CFP-Ran, YFP-importin-beta, homogeneous, primary screen; cell-free CFP-Ran/YFP-importin-beta FRET ratio; inhibition, % (test concentration not listed); 1.1% of 300,000 active; AID 2216;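 active = most replicates above 15%; inconclusive = exactly half above 15%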;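 also: 0% = DMSO wells and 100% = Ran loaded with GDP instead of GTP; wells of about 40 µL received 100 nL stock; the first replicate is given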
Vif TR-FRET: inhibitors of Vif binding to APOBEC3G peptide, primary screen, biochemical, TR-FRET, GST-Vif 1-94, biotin-A3G peptide, dose response retest (AID 1117319); inhibition, %, or IC50 in µM where a hit was titrated; 0.57% of 260,000 active; TR-FRET GST-Vif / biotin-A3G peptide binding; higher % means a stronger effect; test concentration not given here; strong numbers were not always called active;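 active = above the screen mean plus three standard deviations and confirmed in dose response; inconclusive = results disagree or hit not tested in dose response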;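 also: Vif residues 1-94 fused to GST binding biotinylated APOBEC3G peptide 110-148; 0% = full assay without inhibitor and 100% = GST in place of GST-Vif; retest series ran down from 100 µM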
LANA-H2B inh: blocks KSHV LANA binding to histone H2A/H2B | cell-free LANA-H2A/H2B peptide, fluorescence polarization | inhibition, % (test concentration not listed) | 0.6% of 320,000 active | AID 2629; in the data active = inhibition mostly above about 10%, no sharp cut-off; inactive = mostly below about 6.7%;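 also: stock transfer was 7.5 nL into about 10 µL; 0% = median of vehicle wells and 100% = median of positive control wells; one replicate is shown; the record names a cut of 25% in any replicate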
* = called active by the depositor; ? = inconclusive; nt = no result given.

Each structure is followed by: RanGTP-Impb inh | Calb FLC | LANA-H2B inh | Vif TR-FRET | ALR inh | HNF4A DNA FP | Beta2AR agonist
1	C#CCOCCOCCOCCNc1nc(N2CCN(C(=O)CCCCCCCCCCNC(=O)Cn3cc(CCCCCN)nn3)CC2)nc(N2CCN(C(=O)CCCCCCCCCCNC(=O)[C@@H]([C@H](C)O)n3cc(C)nn3)CC2)n1
  nt | nt | -9.2 | nt | -23 | 0.4 | 55*
2	CC1CCCN(C(=O)c2ccc([N+](=O)[O-])o2)C1 (stereo not given)
  2.4 | -1 | 7.0 | nt | -16 | -0.7 | 2
3	O=C(Cn1cncn1)NCc1cccc2ccccc12
  -1.8 | -15 | -2.3 | 30% | -12 | 3.6 | -2
4	COCCNC(=O)CSc1nc2c(n1-c1ccccc1)CCCC2
  0.3 | -2 | 0.9 | -2% | -4 | -2.6 | -6
5	CCOC(=O)C1CCc2sc(N)c(C#N)c21 (stereo not given)
  1.2 | -5 | 3.3 | 24% | 9 | 2.2 | -4
6	Cc1nc2[nH]c(=S)[nH]c2cc1Br
  1.1 | 1 | 0.8 | 0% | -1 | -1.6 | 4
7	O=C1NC(=O)/C(=C/c2cccc(O)c2)N1
  7.4 | -4 | -3.9 | nt | 2 | -1.1 | -1
8	S=C(NC1CC1)NC1CCCc2ccccc21 (stereo not given)
  -3.9 | 7 | 0.9 | -2% | -4 | -1.8 | 14
9	CCOC(=O)/C(C#N)=C/c1cn(CCC(=O)O)nc1-c1ccc(OC)cc1
  4.9 | 6 | -0.3 | 1% | 4 | -0.5 | 5
10	CCC(C)Nc1nc2c(c(=O)[nH]c(=O)n2C)n1CCC(C)C (stereo not given)
  7.1 | -1 | -2.7 | 75% | 63 | -0.6 | 6
11	Oc1ccc(-c2cnc3ccccc3n2)cc1
  0.2 | -10 | -0.3 | nt | 98* | 0.1 | -7
12	O=C(NC12CC3CC(CC(C3)C1)C2)N1CCN(C(=O)c2ccco2)CC1
  -3.3 | -22 | -9.1 | 8% | -9 | -1.2 | -6
13	CCc1ccc(NC(=O)Cn2nc(C)c([N+](=O)[O-])c2C)cc1
  ? | -2 | -12 | -14% | -1 | -2.1 | 3
14	CC(C)(C)NC(=O)c1ccc(NC(=O)c2ccccc2-c2ccccc2C(=O)O)cc1
  2.7 | 6 | 1.9 | nt | 0 | 0.3 | -5
15	COc1ccc2ncc(S(=O)(=O)c3ccccc3)c(N3CCC4(CC3)OCCO4)c2c1
  -1.7 | 6 | 1.3 | nt | -27 | 1.0 | 1
16	CCCCn1c(N)c(N(CC(C)C)C(=O)c2ccc([N+](=O)[O-])o2)c(=O)[nH]c1=O
  nt | nt | nt | -2% | -26 | -1.7 | -3
17	CCN1C(=O)[C@H]2[C@@H](c3ccccc3)N3C(=O)N(c4cccc(F)c4)C(=O)[C@@]3(CC(C)C)[C@H]2C1=O
  -1.1 | 3 | 2.8 | nt | nt | 0.3 | -6
18	Cn1c(NC(=O)c2cccs2)c(-c2cccs2)c(=O)c2ccccc21
  nt | 18 | 0.2 | -220% | -2 | 1.1 | -1
19	Cc1ccc(S(=O)(=O)N2CCC(C(=O)N[C@@H](C)C(=O)NC3CCS(=O)(=O)C3)CC2)cc1 (stereo not given in full)
  1.8 | 26 | 0.1 | 25% | 1 | nt | nt
20	CCC(CC)c1nc2cc(OC)c(OC)cc2c(=O)o1
  -3.5 | -2 | -0.2 | >100µM* | -2 | 11 | -5

Compound profiles, as listed above. Screens in order: RanGTP-Impb inh, Calb FLC, LANA-H2B inh, Vif TR-FRET, ALR inh, HNF4A DNA FP, Beta2AR agonist
`Cc1ccc(S(=O)(=O)N2CCC(C(=O)N[C@@H](C)C(=O)NC3CCS(=O)(=O)C3)CC2)cc1` (stereo not given in full) is listed with 1.8, 26, 0.1, 25%, 1, nt, nt
`CCOC(=O)/C(C#N)=C/c1cn(CCC(=O)O)nc1-c1ccc(OC)cc1` is listed with 4.9, 6, -0.3, 1%, 4, -0.5, 5
`C#CCOCCOCCOCCNc1nc(N2CCN(C(=O)CCCCCCCCCCNC(=O)Cn3cc(CCCCCN)nn3)CC2)nc(N2CCN(C(=O)CCCCCCCCCCNC(=O)[C@@H]([C@H](C)O)n3cc(C)nn3)CC2)n1` is listed with nt, nt, -9.2, nt, -23, 0.4, 55*
`CCC(CC)c1nc2cc(OC)c(OC)cc2c(=O)o1` is listed with -3.5, -2, -0.2, >100µM*, -2, 11, -5

Carrying on:
Each structure is followed by: RanGTP-Impb inh | Calb FLC | LANA-H2B inh | Vif TR-FRET | ALR inh | HNF4A DNA FP | Beta2AR agonist
21	Cc1ccc(S(=O)(=O)NC2=NCN(CCOC(=O)c3ccccc3)CN2)cc1
  ? | -7 | -2.9 | -3% | -8 | -4.3 | 3
22	COc1ccccc1N1CCN(Cc2nc3ccsc3c(=O)[nH]2)CC1
  -2.8 | 11 | 0.3 | 2% | 40 | 0.0 | 3
23	CCOC(=O)c1[nH]c2ccc(OCC)cc2c1CCCN1C(=O)c2ccccc2C1=O
  -7.6 | -10 | 0.6 | -4% | -6 | -0.7 | -3
24	O=C(COC(=O)c1c2ccccc2cc2ccccc12)Nc1ncc(C(F)(F)F)cc1Cl
  5.7 | -3 | 14 | 7% | -12 | -1.0 | -3
25	CCOC(=O)Cc1csc(NC(=O)c2sc3nc4ccc(C)cc4cc3c2N)n1
  -1.7 | 2 | -1.4 | 1% | 99* | 38* | 10
26	CC(CN1C(C)CCCC1C)OC(=O)c1cccc(F)c1 (stereo not given)
  -0.6 | -3 | 0.1 | -8% | nt | 0.9 | -2
27	CC1=Nc2ccccc2N=C(NC(=O)CSC(=S)N2CCCCC2)C1c1ccccc1 (stereo not given)
  4.4 | 2 | 4.5 | 1% | 1 | 4.4 | -3
28	Cc1cc(NS(=O)(=O)c2ccc(NC(=O)CSc3nnc(-c4ccco4)n3N)cc2)nc(C)n1
  7.1 | -8 | -0.8 | ? | 20 | 0.4 | -6
29	CCCn1c(-c2cc(OC)c(OC)c(OC)c2)nc2c1c(=O)[nH]c(=O)n2Cc1ccccc1
  0.6 | -3 | 16 | nt | nt | 0.5 | 9
30	Cc1cccc(NC(=O)C2CC(=O)OC23CCCCC3)c1 (stereo not given)
  -4.4 | 5 | -2.5 | -3% | -4 | -2.5 | 4
31	CC(=O)c1ccc(S(=O)(=O)NCc2ccc(C(=O)N(C)CC(=O)Nc3cccc(F)c3)cc2)cc1
  0.1 | 4 | -2.3 | -9% | -3 | -1.4 | -8
32	O=C(c1ccc2nc(N3CCCCC3)sc2c1)N1CCN(c2ccccn2)CC1
  -0.1 | -6 | -1.2 | nt | -3 | 3.5 | -13
33	Cc1nc(SCC(=O)NNC(=O)c2cccs2)[nH]c(=O)c1C
  1.2 | -16 | 3.3 | 3% | 9 | 1.2 | 1
34	CCOc1ccccc1N(CC(=O)NC1CCCC1)S(=O)(=O)c1ccc(C)cc1
  2.1 | -3 | -0.2 | nt | 63 | -0.1 | 1
35	Cc1cc(C(=O)N/N=C\c2cc(C(C)(C)C)c(O)c(C(C)(C)C)c2)n[nH]1
  -1.7 | -2 | 1.6 | -1% | 7 | -1.5 | 8
36	O=C(CSc1nnc(C2CC2)n1Cc1ccccc1)c1cc2ccccc2o1
  ? | 5 | 8.8 | 11% | -4 | 3.2 | 0
37	CC1CCCN(C(=O)CCc2ccccc2)C1 (stereo not given)
  1.4 | nt | 0.5 | 3% | -20 | 2.9 | -4
38	CCn1c(C)nc2cc(C(=O)N/N=C/c3ccc(OC)cc3)ccc21
  -0.4 | 20 | 1.5 | -1% | 2 | 0.3 | -3
39	CNc1nnc(-c2ccco2)s1
  -0.1 | -4 | -2.5 | 0% | 2 | -1.7 | -1
40	COc1cccc(-c2ccc(NC(=O)C3CCCN(Cc4cnn(C(C)C)c4)C3)cc2)c1 (stereo not given)
  -1.0 | -3 | 0.3 | -5% | -28 | 1.9 | 23
41	CC(C)n1c(SCC(=O)Nc2nncs2)nnc1C1CC1
  -0.2 | -4 | 1.6 | 2% | -3 | -2.9 | -3
42	CCOC(=O)N1C2C=C(C)[C@@H]2[C@@H]2CC(=O)N21 (stereo not given in full)
  0.7 | -1 | 4.6 | -9% | -8 | 1.0 | 0
43	CCOC(=O)c1c(C)[nH]c(C(=O)Cn2nnc(-c3ccccc3)n2)c1C
  6.9 | 2 | -0.1 | 0% | nt | 5.8 | 9
44	CCOc1ccc(Br)cc1C1=NN(C(C)=O)C(c2ccc([N+](=O)[O-])s2)O1 (stereo not given)
  1.0 | 11 | nt | 8% | nt | 0.1 | 10
45	Cc1cc(O)c(C(C)C)cc1NC(=O)c1ccccc1Cl
  4.5 | 8 | -0.3 | nt | 54 | 1.8 | 5
46	CC(Oc1ccc(Br)cc1)C(=O)Nc1ccc(N2CCOCC2)cc1N1CCOCC1 (stereo not given)
  ? | 11 | 6.9 | 4% | 20 | 1.1 | -1
47	COc1ccc(C)cc1N(CC(=O)N/N=C/c1ccc2c(c1)OCO2)S(C)(=O)=O
  2.8 | 0 | 0.7 | 4% | -4 | 0.0 | -1
48	O=C(Cc1ccccc1)NCCn1ccc2ccccc21
  0.2 | 1 | 0.8 | 2% | -32 | 0.9 | 3
49	O=[N+]([O-])c1cccc(/C=N/NC2=NS(=O)(=O)c3ccccc32)c1
  -3.4 | 3 | -0.8 | -6% | 47 | 1.5 | -3
50	C[n+]1cccc(C(=O)N/N=C/c2ccc3c(c2)OCO3)c1
  1.2 | 10 | -3.4 | nt | -4 | 2.0 | -2
51	COc1c(C(=O)Nc2ccc(Cc3ccncc3)cc2)ccc2ccccc12
  -1.0 | 1 | 4.2 | 20% | -20 | -1.3 | -22
52	COc1ccccc1CNC(=O)CC1C(=O)NCCN1C1Cc2ccccc2C1 (stereo not given)
  1.7 | -3 | -6.2 | 6% | -26 | 0.0 | -3
53	CN(CCC#N)C(=O)COC(=O)c1ccc2c(c1)C(=O)N(C1CCCCC1)C2=O
  5.6 | 0 | 0.5 | 6% | -5 | -1.2 | -2
54	Cc1cc(-c2ccccc2)c2c3c(cn2n1)c(=O)n(C)c(=O)n3C
  -4.1 | 44 | -4.0 | 5% | 8 | 0.5 | -10
55	O=C(CSc1ccccn1)Nc1ccc(Br)cn1
  -4.9 | -18 | -2.5 | 2% | -4 | -1.1 | -2
56	CCOC(=O)COc1cccc2c(=O)n(CC(=O)N3CCC(C)CC3)ccc12
  0.6 | -4 | -0.8 | -2% | -7 | -1.7 | 14
57	CCn1c(SCC(=O)Nc2ccc(N3CCOCC3)cc2)nnc1-c1ccco1
  0.2 | 0 | 0.9 | 1% | 98* | 0.1 | -10
58	CCOC(=O)CN1C(=O)c2ccccc2C1=O
  0.7 | 7 | 0.6 | -2% | -14 | -1.9 | 8
59	O=S(=O)(Nc1cccc(-c2ccc(N3CCCCCC3)nn2)c1)c1cccc(F)c1
  4.2 | 0 | -1.1 | nt | -3 | -1.4 | 12
60	COc1ccc(CCNC(=O)Cn2nc([N+](=O)[O-])c(Br)c2C)cc1OC
  4.3 | 11 | 4.8 | nt | -33 | -4.3 | -6

An excerpt from above in order of the HNF4A DNA FP value, high to low.
no.	Molecule	HNF4A DNA FP
40	COc1cccc(-c2ccc(NC(=O)C3CCCN(Cc4cnn(C(C)C)c4)C3)cc2)c1 (stereo not given)	1.9
45	Cc1cc(O)c(C(C)C)cc1NC(=O)c1ccccc1Cl	1.8
38	CCn1c(C)nc2cc(C(=O)N/N=C/c3ccc(OC)cc3)ccc21	0.3
7	O=C1NC(=O)/C(=C/c2cccc(O)c2)N1	-1.1
13	CCc1ccc(NC(=O)Cn2nc(C)c([N+](=O)[O-])c2C)cc1	-2.1
